Screening data from PubChem.
VACV Venus inh: vaccinia inhibition (Venus reporter); AID 720580; Potency, µM (titrated, usually from 36.5 µM), inactives show top-dose activity change, negative = inhibition, usual class: inhibitors; actives 0.46% (n = 330,000); Vaccinia virus Venus reporter expression, fluorescence; active means well fitted inhibition curve with a large enough effect; inconclusive means small, poorly fitted or top-dose-only effect; inactive means no such curve, though single readings can be large or run the other way; tested in A549 cells; note: nearly all actives have a fitted effect of over 30% in size; inactives centre near -10
Vaccinia mCherry: inhibitors of vaccinia virus infection (mCherry reporter signal). Vaccinia virus mCherry reporter infection, fluorescence; about a quarter of the inactives have no number. actives 0.63% (n = 310,000). Potency, µM (titrated, usually from 36.5 µM), inactives show at the highest dose activity change, negative = inhibition, most hits filed as inhibitors; active = well fitted inhibition curve with a large enough effect; inconclusive = small, poorly fitted or top-dose-only effect; inactive = no such curve, though single readings can be large or run the other way; tested in A549 cells; note: nearly all actives have a fitted effect of over 35% in size; inactives centre near -10
* marks the source's active call; other numbers are inactive results; i = inactive; ? = inconclusive; · = no result given; & = joins results of further samples; [ ] = remark or other dose. % is set by controls: 0 for no effect and ±100 for the full control effect; potency is the fitted concentration of half-maximal effect.

Fields – Vaccinia mCherry | VACV Venus inh
CC[C@@]12C(=O)N(c3ccccc3)C(=O)N1[C@H](c1cccc(C)c1)[C@@H]1C(=O)N(Cc3ccccc3)C(=O)[C@@H]12
  -1.0% | -14.3%
CC1CN(C(=O)COC(=O)[C@@H](NC(=O)c2ccccc2Cl)C(C)C)CC(C)O1 (some centres not stated)
  i | -11.7%
CC(C)C(C(=O)Nc1ccccc1F)N1C(=O)c2ccccc2C1=O (configuration not stated)
  0.3% | 16.9%
CN(C)c1ccccc1C(=O)N1CCC(n2nccc2NC(=O)C2CC2)CC1
  -13.9% | -10.3%
CC(CNC(=O)c1sc2ncccc2c1-n1cccc1)c1ccccc1 (configuration not stated)
  -7.5% | -8.1%
CC1CN(CCCSc2ccc(Cl)cc2)CC(C)O1 (configuration not stated)
  -8.3% | -19.2%
CCn1ncc(/C=N\NC(=O)c2ccc3c(c2)c(C)c(C)n3Cc2ccccc2)c1C
  -27.2% | -21.3%
CNC(=O)CN(c1cc(OCCOC)c(Cl)cc1Cl)S(=O)(=O)c1ccccc1
  -13.9% | -23.8%
CN(CC(=O)Nc1ccccc1Cl)C(=O)CSc1nncs1
  i | -14.5%
COc1ccccc1/C=C(/C(=O)OCC(=O)NCc1ccccc1)c1ccccc1
  i | 2.5%

Fields – Vaccinia mCherry | VACV Venus inh
c1ccc(CCNc2ccnc3cc4ccccc4cc23)cc1
  ? | ?
CCOc1ccc(C2CC(c3c(O)n(C)c(=O)n(C)c3=O)=NN2)cc1 (configuration not stated)
  i | -3.9%
CN(C)S(=O)(=O)c1ccc(NC(=O)COc2cccc3c2OC(C)(C)C3)cc1
  -4.5% | -11.8%
CC1CCCC(NC(=O)CCCn2c(=S)[nH]c3ccccc3c2=O)C1C (configuration not stated)
  -3.9% | -6.3%
CCOc1ccccc1NC(=O)CSc1ccc(-c2sc(C)nc2C)nn1
  ? | -27.7%
CCOC(=O)N1CCC(NS(=O)(=O)c2ccc(C)c(Cl)c2)CC1
  -9.7%[7.34 µM] | -9.8%[7.34 µM]
O=S(=O)(c1ccc(C2CCCCC2)cc1)N1CCN(c2ncccn2)CC1
  -7.1% | -7.1%
Cc1cc([N+](=O)[O-])nn1Cc1ccc(C(=O)N/N=C/c2ccc(F)cc2)cc1
  -29.9% | -25.1%
Cc1cccc(-c2nc(C#N)c(NC3CCCCC3)o2)c1
  -12.0% | -26.0%
O=S(=O)(c1ccccc1)N1CCN(CC(O)COc2ccc3c(c2)CCC3)CC1 (configuration not stated)
  -29.4% | -22.8%

Fields – Vaccinia mCherry | VACV Venus inh
O=C(C1CC1)N1CCc2cc(Br)cc(S(=O)(=O)NCc3ccccn3)c21
  -12.4% | -4.0%
O=C(COC(=O)CNC(=O)c1ccc(Cl)cc1Cl)NC(=O)NC1CCCCC1
  -6.3% | 1.4%
Cc1cc(C=O)c(C)n1-c1ccc(N2CCCCC2)c([N+](=O)[O-])c1
  · | -14.0%
CCOc1ccc(NS(=O)(=O)c2cc(NC(=O)CCS(=O)(=O)c3ccc(C)cc3)ccc2OC)cc1
  -21.3% | -22.3%
O=C(CS(=O)(=O)c1c[nH]c2ccccc12)N1CCCc2ccccc21
  14.4% | -6.3%
CN1C(=O)C(=Cc2cn(CC#N)c3ccccc23)C(=O)N(C)C1=O
  i | -4.5%
CN(Cc1cnn(C)c1)C(=O)c1sc2cccc(Cl)c2c1Cl
  ? | -25.4%
COc1ccc(C)cc1-n1nnnc1SCc1csc(C)n1
  -9.0% | -3.2%
CCOc1ccc2ccc(OCC)c(/C=N/n3cnnc3)c2c1
  -8.5% | -28.6%
CN1CCN(CC(O)COC(c2ccccc2)c2ccccc2)CC1 (configuration not stated)
  -3.3% | -3.7%

Sorted by formula weight (lowest first): some entries from above.
Fields – Vaccinia mCherry | VACV Venus inh
CCOC(=O)N1CCC(NS(=O)(=O)c2ccc(C)c(Cl)c2)CC1
  -9.7%[7.34 µM] | -9.8%[7.34 µM]
O=S(=O)(c1ccc(C2CCCCC2)cc1)N1CCN(c2ncccn2)CC1
  -7.1% | -7.1%
O=S(=O)(c1ccccc1)N1CCN(CC(O)COc2ccc3c(c2)CCC3)CC1 (configuration not stated)
  -29.4% | -22.8%
CNC(=O)CN(c1cc(OCCOC)c(Cl)cc1Cl)S(=O)(=O)c1ccccc1
  -13.9% | -23.8%

The list continues:
Fields – Vaccinia mCherry | VACV Venus inh
Cc1nnc(NC(=O)CC23CC4CC(CC(C4)C2)C3)s1
  26.2% | 10.0%
Cc1ccc(C)c(OCCCCn2ccnc2)c1
  -17.7% | -13.6%
C=CCn1c(SC(C)CC)nc(O)cc1=O (configuration not stated)
  · | -7.4%
COC(=O)CNc1cc(S(=O)(=O)N2CCCCC2)ccc1Oc1ccc(C(=O)OC)cc1
  -2.4% | -15.7%
C[C@H]1CN([C@@H](C)CO)C(=O)CCCn2nncc2CO[C@@H]1CN(C)C(=O)Nc1cccc2ccccc12
  -20.1% | -19.9%
Cc1cnc(NC(=O)Cc2ccccc2Cl)s1
  -25.4% | -29.7%
COc1ccc([C@@H]2[C@@H]3C(=O)N(C(C)(C)C)C(=O)[C@@H]3[C@]3(CC(C)C)C(=O)N(c4ccccc4)C(=O)N23)cc1
  -22.8% | -8.0%
N=c1nc2n(cc1F)C1OC(CO)C(O)C1O2 (configuration not stated)
  5.62µM* | ?
CCN(CC)CCn1c(=N)n(CC(=O)c2ccc(Br)s2)c2ccccc21
  ? | -27.7%
COc1cccc(-n2c(SCC(=O)Nc3cc(C)ccc3C)nc3c(oc4ccccc43)c2=O)c1
  -5.8% | 0.7%

Fields – Vaccinia mCherry | VACV Venus inh
O=C(O)CSc1ncnc2sc3c(c12)CCC3
  -6.4% | 1.7%
O=Cc1c(-c2ccc(F)cc2)nc2ccccn12
  -7.8% | -6.6%
CCCCNCCCOc1cc(Cl)ccc1Cl
  · | -23.1%
CN(c1ccccc1)S(=O)(=O)c1cc(C(=O)NCc2ccco2)ccc1Cl
  i | -28.0%
COc1ccccc1-n1nnnc1SCC(=O)N1CCCC1=O
  -10.1% | -7.6%
Cc1c(C(=O)NNS(=O)(=O)c2ccccc2)sc(=S)n1C
  i | -10.1%
COc1ccc(N2CC(C(=O)Nc3nc4ccc(S(C)(=O)=O)cc4s3)CC2=O)cc1 (configuration not stated)
  -11.8% | 9.3%
O=C(Nc1ccccc1Cl)c1ccccc1CC(O)(c1ccccc1)c1ccccc1
  -2.5% | -27.0%
O=C(Nc1cccc2cccnc12)c1ccccc1[N+](=O)[O-]
  9.5% | 8.2%
OCCN1CCN(CC(O)COc2ccc(-c3ccccc3)cc2)CC1 (configuration not stated)
  -12.4% | -6.1%

Fields – Vaccinia mCherry | VACV Venus inh
Cc1cc(F)ccc1NC(=O)c1ccc2nc(Cc3ccccc3)oc2c1
  -5.3% | -2.4%
COc1ccc2c(c1)OC(C)CN(CCNC(=O)c1ccc(-n3cccn3)cc1)C2 (configuration not stated)
  -25.9% | -11.0%
CC(NC(=O)c1cccnc1)C(c1cccs1)N1CCN(c2ccccc2F)CC1 (configuration not stated)
  -8.8% | -17.3%
O=C(COC(=O)c1ccc2c(c1)C(=O)N(Cc1ccncc1)C2=O)Nc1cccc2ccccc12
  -27.4% | -17.0%
Cc1cccc(Nc2ncnc3ccc(Br)cc23)c1
  -1.3% | ?
Cc1cccc(CN(CC(=O)N/N=C/c2ccco2)S(=O)(=O)c2ccc(Cl)cc2)c1
  · | -25.3%
CC1(C)C=C(c2ccc(C(=O)O)s2)CC(C)(C)N1
  i | 0.4%
Cc1ccc(C(=O)Nc2nc(-c3nnn(-c4cccc(C(F)(F)F)c4)c3C)ns2)cc1
  -15.3% | -7.2%
CCCOc1ccc(F)cc1-c1cc(C(=O)NCCOC)[nH]n1
  -8.8% | -5.1%
CCN(C(=O)c1cc(S(=O)(=O)N2CCc3ccccc32)cn1C)c1cccc(C)c1
  -14.5% | -10.3%

Fields – Vaccinia mCherry | VACV Venus inh
Cc1ccc([N+](=O)[O-])cc1NC(=S)NC(=O)CC(C)(C)C
  ? | -3.3%
C/C(=N\NC(N)=O)c1cccc(Cl)c1
  -0.3% | -16.3%
Cc1cc(-c2nc3c4c5c(sc4[nH]c(=O)n3n2)CCC5)c(C)o1
  -13.6% | 3.9%
COc1ccc(CCNC(=O)c2sc3cc(C)ccc3c2Cl)cc1
  · | -6.8%
O=c1[nH]c2ccccc2nc1NCCN1CCOCC1
  · | -3.9%
O=S(=O)(c1cc(Cl)ccc1Cl)N1CCN2CCCC2C1 (configuration not stated)
  i | -4.0%
O=C(CN1CCN(Cc2ccc3c(c2)OCO3)CC1)Nc1cc(S(=O)(=O)N2CCCC2)ccc1Cl
  -13.7% | -14.1%
Cc1cccc(Nc2nc(N)nc(CCl)n2)c1C
  ? | ?
CNc1cncc(-c2cccc(O)c2)n1
  -12.8% | 1.6%
COCCN1C(=O)c2cc(C(=O)Nc3cccc(F)c3)ccc2C1Nc1cccc(F)c1 (configuration not stated)
  i | ?

Fields – Vaccinia mCherry | VACV Venus inh
CSc1sc(-c2ccnc(=S)[nH]2)c(-c2ccccc2)c1C#N
  i | -9.3%
COc1cccc(S(=O)(=O)N(C)C[C@H]2Oc3ncc(Br)cc3C(=O)N([C@@H](C)CO)C[C@@H]2C)c1
  -5.3% | -26.1%
COCc1cc(C)nc2sc3c(=O)n(-c4cc(C)ccc4C)nnc3c12
  -10.3% | -4.5%
COc1ccc(/C=C2\Oc3cc(OCC(=O)N4CCC(C(=O)O)CC4)ccc3C2=O)c(OC)c1OC
  -1.3% | -9.1%
Cc1nnc(NC(=O)C(c2ccccc2)c2ccccc2)s1
  3.5% | -1.8%
C#CCOCCOCCOCCNc1nc(N2CCN(C(=O)CCCCCCCCCCNC(=O)Cn3cc(CCCCCN)nn3)CC2)nc(N2CCN(C(=O)CCCCCCCCCCNC(=O)Cn3cc(C[C@@H](C)O)nn3)CC2)n1
  -15.5% | ?
O[C@@H]1C[C@H](c2ccc(Cl)cc2)N(Cc2cccs2)C[C@H]1n1cc(-c2ccc(F)cc2)nn1
  i | -18.5%
CCn1c(C(=O)NCCCc2ccccc2)cc2sccc21
  -12.3% | -15.5%
COc1ccc(-c2cc(C(F)(F)F)nc(N)n2)cc1
  i | -10.8%
COc1ccc(CNC(=O)Cn2ccc(NC(=O)OCc3ccccc3)nc2=O)cc1
  i | -9.6%

Fields – Vaccinia mCherry | VACV Venus inh
Cc1c(Cl)cccc1NC(=O)CNC(=O)c1ccccc1F
  -11.5% | -7.0%
Cc1cccc(NC(=S)NC(=O)c2ccc(-c3ccccc3)cc2)n1
  ? | -7.3%
O=C(NC12CC3CC(CC(C3)C1)C2)c1cc(F)c(F)c(F)c1F
  -4.5% | ?
COc1ccc(NC(=O)CSc2nccn2C)cc1S(N)(=O)=O
  2.3% | -8.9%
CCC(=NCc1ccccc1)C1=C(O)C(C(=O)OC)C(C)(C)CC1=O (configuration not stated)
  · | 8.7%
Cn1c(C2=C(O)CN(Cc3ccccc3)C2=N)[n+](C)c2ccccc21
  -1.3% | -6.7%
COc1cc(F)c(C2=CC(=O)CC(C)(C)C2)cc1F
  i | -9.9%
O=C(Nc1cccc(S(=O)(=O)N2CCCCCC2)c1)C1=COCCO1
  -11.9% | -16.5%
CCCSc1nc2ccccc2c(=O)n1-c1ccccc1OC
  -18.6% | -16.5%
Cc1ccc2nc(NC(=O)C3CCN(C(=O)c4ccc(F)cc4)CC3)sc2c1
  ? | ?

Fields – Vaccinia mCherry | VACV Venus inh
CN(C)S(=O)(=O)c1cccc(NC(=O)COC(=O)[C@H](Cc2ccccc2)NC(=O)c2ccco2)c1
  -20.7% | -9.2%
Cc1c(Cl)cccc1NC(=O)[C@@]1(CC(=O)O)CC(/C=C/c2ccccc2)=NO1
  -5.6% | -12.7%
CCCCNC(=O)C(C)N(CCN(C)C)C(=O)CCCN1C(=O)NC(c2ccc([N+](=O)[O-])cc2)C(C(=O)OCc2ccccc2)=C1C (configuration not stated)
  ? | ?
CC(=O)c1cc2c(cc1N/C(=N/S(=O)(=O)c1ccc(C)cc1)c1ccc(Cl)cc1)OCO2
  -4.7% | -16.8%&-9.9%
Cc1nn(CCC(=O)Nc2cccc(C#N)c2)c(C)c1S(=O)(=O)N1CCC(C)CC1
  -38.8% | -25.7%
COc1ccc(C(=O)CCc2ccc(OC)c(OC)c2)cc1
  i | 5.8%
CSc1ccc(CN2CCC2(C)C(=O)Nc2ccc3c(c2)OCO3)cc1 (configuration not stated)
  ? | -0.7%
CSc1nnc(C)c(=O)n1COC(=O)/C=C/c1ccc2c(c1)OCO2
  -25.4% | 22.6%
O=C(COC(=O)Cc1n[nH]c(=O)c2ccccc12)Nc1c(Cl)cccc1C(F)(F)F
  -14.4% | -15.0%
COc1ccc(C(=O)N2CCCC(c3ccccc3)C2)cc1 (configuration not stated)
  ? | -25.4%

Fields – Vaccinia mCherry | VACV Venus inh
CCOC(=O)c1ccc(NC(=O)CCc2c(C)nc3cc(-c4ccc(OC)cc4OC)nn3c2C)cc1
  -5.3% | -6.6%
CSc1ccc(CNc2ccccn2)cc1
  · | -2.5%
CN(C)c1ccc(NC(=O)Cn2c(SCc3ccccc3F)nc3cccnc32)cc1
  0.6% | -14.8%
Brc1ccc(-c2ccc(/C=N/Nc3nncc(-c4ccccc4)n3)o2)cc1
  i | -5.6%
Cc1cccc(NC(=O)COC(=O)Cc2cccs2)c1C
  -12.2% | -13.8%
O=C(O)c1ccccc1-c1nc(-c2ccccc2)c(-c2ccccc2)[nH]1
  -1.9% | -7.2%
Cn1cc(C(=O)NCc2ccccc2)c(=O)c2cc(S(=O)(=O)N3CCCCCC3)ccc21
  -28.6% | -15.4%
CC(C)(C)C(=O)N1CCN(c2ccc([N+](=O)[O-])c(NCc3cccnc3)c2)CC1
  i | -14.6%
